# Screens (PubChem BioAssay)
# BRCA1 expr up: increases BRCA1 expression; MCF7-BRCA1-FFLuc reporter, luminescence, 48 h; response scale: scaled: vehicle 0%, 10 µM genistein 100%; Potency, µM (series often up to 46.1 µM), inactives show top-dose activation, actives largely listed as activators; hit rate 1.1% among 380,000; further: potency means the concentration at half of the fitted maximal effect; nearly all actives have a fitted effect of over 80% in size; some results filed as inactive show a strong effect at the top dose
#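 48 h compound treatment of MCF7-BRCA1-FFLuc cells (phenol-red free MEM, 37 °C), then 15 min with luciferase substrate and luminescence imaging.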
# Giardia killer: Giardia lamblia killing; Giardia lamblia trophozoite viability; activity change, % at 7.66 µM, hits read low; hit rate 0.15% among 340,000; AID 540267; in the data active means activity change below about -80%;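 further: parasites exposed to compound for two days anaerobically before the ATP read; on the % scale 0 is the no-effect control and ±100 the full control effect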
#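 Compounds were tested on trophozoites seeded at 100 cells/well and held 48 hrs at 37 deg C anaerobically. An ATP-based luminescent kit measured the remaining live cells.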
# NPC1 promoter act: NPC1 promoter activation. Huh7 NPC1 promoter luciferase reporter, 24 h. Potency, µM (doses to about 9.22 µM), for the others: at the top dose activation, most hits filed as activators. hit rate 2.4% among 320,000;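 further: potency means the concentration at half of the fitted maximal effect; % of control where 0% means no effect; nearly all actives have a fitted effect of over 60% in size; reporter is driven by a mutant NPC1 promoter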
#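 NPC1 promoter–luciferase Huh7 cells; 24 h compound; luminescence.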
# * marks the source's active call; other numbers are inactive results; / = not tested or not shown; & = joins results of further samples; [ ] = dose if it differs, or a comment. Unless noted, the call rests on the fitted dose curve; in most records, active means well fitted activation curve with a large enough effect; inconclusive means small, poorly fitted or top-dose-only effect; inactive means no such curve, though single readings can be large or run the other way. Some of the compounds tested; the hit share may differ from the screen's.
no.	Structure	BRCA1 expr up	Giardia killer	NPC1 promoter act
1	Cc1cccc(CCN2CCC(C(=O)c3ccc(NS(C)(=O)=O)cc3)CC2)n1	/	/	0%
2	Cc1ccc(/C(=C\CN2CCCC2)c2ccccn2)cc1	1%	1	1%[46.1 µM]
3	N[C@@H](CC(=O)O)C(=O)O	/	/	0%[46.1 µM]
4	CN(C)CCCN1c2ccccc2Sc2ccc(C(F)(F)F)cc21	9%&-14%	-16	-33%[inhibitor][46.1 µM]
5	CN[C@@H]1CC[C@H](c2ccc(Cl)c(Cl)c2)c2ccccc21	-18%	6	-1%
6	Cc1noc(NS(=O)(=O)c2ccc(N)cc2)c1C	7%	4	-3%
7	CC(C)(C)NC(=O)[C@@H]1CN(Cc2cccnc2)CCN1C[C@@H](O)C[C@@H](Cc1ccccc1)C(=O)N[C@H]1c2ccccc2C[C@H]1O	-6%	-15	/
8	CC(=O)C1CCC2C3CCC4CC(=O)CCC4(C)C3C=CC12C (stereo unspecified)	-45%	-21	/
9	Cc1ccc(NC(=O)c2ccc(CN3CCN(C)CC3)cc2)cc1Nc1nccc(-c2cccnc2)n1	15%&11%&1%	1	/
10	Cc1ccc(CSc2nc(N)cc(=O)[nH]2)cc1	27%	-15	-1%
11	CC(=O)c1cn(Cc2ccccc2)c(=O)n(Cc2ccc(F)cc2)c1=O	22%	5	-24%
12	O=C(O)CC(O)(CC(=O)O)C(=O)O	3%	-9	/

# 5 entries out of the list, ordered by molar mass, rising.
no.	Structure	BRCA1 expr up	Giardia killer	NPC1 promoter act
10	Cc1ccc(CSc2nc(N)cc(=O)[nH]2)cc1	27%	-15	-1%
2	Cc1ccc(/C(=C\CN2CCCC2)c2ccccn2)cc1	1%	1	1%[46.1 µM]
8	CC(=O)C1CCC2C3CCC4CC(=O)CCC4(C)C3C=CC12C (stereo unspecified)	-45%	-21	/
11	CC(=O)c1cn(Cc2ccccc2)c(=O)n(Cc2ccc(F)cc2)c1=O	22%	5	-24%
9	Cc1ccc(NC(=O)c2ccc(CN3CCN(C)CC3)cc2)cc1Nc1nccc(-c2cccnc2)n1	15%&11%&1%	1	/

# Compounds shown so far containing a COOH group:
no.	Structure	BRCA1 expr up	Giardia killer	NPC1 promoter act
3	N[C@@H](CC(=O)O)C(=O)O	/	/	0%[46.1 µM]
12	O=C(O)CC(O)(CC(=O)O)C(=O)O	3%	-9	/
